Luc counter: Counterscreen for Luciferase (Kinase-Glo TM) Inhibition | Luciferin 4-monooxygenase (Photuris pensylvanica), Q27757 | Potency, µM (series often up to 38.3 µM), for inactives: top-dose activity change, negative = inhibition, usual class: inhibitors | actives 0.28% (n = 200,000) | Kinase-Glo luciferase, ATP luminescence, 8 min; further: potency means the concentration at half of the fitted maximal effect; on the % scale 0 is the no-effect control and ±100 the full control effect; nearly all actives have a fitted effect of over 60% in size
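Compounds were added to a substrate mix at pH 7.2 (50 mM imidazole, 10 uM ATP, within the enzyme's linear range), followed by Kinase-Glo detection reagent; luminescence was measured after 8 minutes at ambient temperature.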
Epigenetic derep: Quantitative High-Throughput Screen for Regulators of Epigenetic Control; murine LDR cells, GFP reporter derepression, 30 h; actives 0.2% (n = 280,000); AID 1865, 2009; Potency, µM (series often up to 53.9 µM), for the others: top-dose GFP activation, most hits filed as activators; further: potency means the concentration at half of the fitted maximal effect; % of control where 0% means no effect; nearly all actives have a fitted effect of over 60% in size
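Readout is the number of GFP-expressing murine LDR cells, counted by cytometry following washing. Cells were treated with compound for 30 h at 37 C; the stably integrated CMV-GFP locus is normally silent.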
HttQ103 aggreg: qHTS Multiplex Assay to Identify Dual Action Probes in a Cell Model of Huntington: Aggregate Formation (GFP); PC12 HttQ103-GFP aggregates, Acumen cytometry, 40 h; actives 1.1% (n = 220,000); AID 1688, 2009; Potency, µM (doses to about 46.1 µM), for the others: at the highest dose activity change, negative = inhibition, usual class: inhibitors; further: potency means the concentration at half of the fitted maximal effect; on the % scale 0 is the no-effect control and ±100 the full control effect; nearly all actives have a fitted effect of over 60% in size
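Aggregates are detected as GFP objects 1–25 µm with signal 6 STDEV over background in lysates of induced PC12 cells. These carry Huntingtin exon 1 with 103 glutamines fused to GFP under an ecdysone promoter; compounds titrated.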
IMPase Li inh: qHTS Assay for Identifying the Cell-Membrane Permeable IMPase Inhibitors: Potentiation with Lithium. CHO-M1 cells, IP1 TR-FRET (IP-One), carbachol + lithium. Potency, µM (titrated, usually from 59.4 µM), for the others: at the top dose activity, negative = IMPase inhibition, usual class: inhibitors. actives 0.35% (n = 210,000);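 further: IP1 builds up when IMPase is blocked and the TR-FRET signal falls; potency means the concentration at half of the fitted maximal effect; plate controls were basal vehicle for no effect and high inhibitor control for full effect; nearly all actives have a fitted effect of over 50% in size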
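CHO-M1, 2000 cells/well, 16–30 h culture; cpd + low Li+, 30 min 37C; lysis with d2-IP1/Eu-anti-IP1 Ab, 10 min RT; TR-FRET 665/620 ratio and 620 channel; AC50 via Hill.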
CBFb-RUNX1 inh: qHTS Assay for Compounds Blocking the Interaction Between CBF-beta and RUNX1 for the Treatment of Acute Myeloid Leukemia. Runt-related transcription factor 1 (Homo sapiens) + Core-binding factor subunit beta …. AlphaScreen CBFb-His/RUNX1-biotin binding, biochemical. Potency, µM (titrated, usually from 59.8 µM), for inactives: top-dose activity, negative = inhibition, hits mostly inhibitors. 230,000 tested, under 10 active. AID 1477, 2009; further: % of control where 0% means no effect
Target sequence (Q01196 whole entry, looked up): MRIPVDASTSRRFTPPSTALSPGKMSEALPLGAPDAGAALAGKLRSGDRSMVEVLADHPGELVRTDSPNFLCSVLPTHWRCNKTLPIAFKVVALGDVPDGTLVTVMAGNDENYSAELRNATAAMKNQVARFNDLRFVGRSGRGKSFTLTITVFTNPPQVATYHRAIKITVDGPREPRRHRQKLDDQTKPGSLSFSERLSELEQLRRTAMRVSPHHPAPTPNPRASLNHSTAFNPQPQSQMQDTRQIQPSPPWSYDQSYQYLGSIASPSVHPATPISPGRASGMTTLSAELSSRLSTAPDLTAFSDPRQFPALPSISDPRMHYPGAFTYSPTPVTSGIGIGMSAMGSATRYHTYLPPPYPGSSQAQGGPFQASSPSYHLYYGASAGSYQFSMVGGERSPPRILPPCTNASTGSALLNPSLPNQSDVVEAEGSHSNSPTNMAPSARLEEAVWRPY
Target sequence (Q13951 whole entry, looked up): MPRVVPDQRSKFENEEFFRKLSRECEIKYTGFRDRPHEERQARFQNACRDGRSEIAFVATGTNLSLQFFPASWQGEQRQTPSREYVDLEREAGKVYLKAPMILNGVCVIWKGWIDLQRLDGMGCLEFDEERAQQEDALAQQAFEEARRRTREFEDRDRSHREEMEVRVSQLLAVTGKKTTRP
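Bead-based AlphaScreen assay; binding partners His-tagged CBF-beta and biotinylated RUNX1 at 30 nM each. Compound exposure 15 min after a 20-min protein preincubation; bead step 90 min; all steps at room temperature.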
LMNA splice mod: qHTS Assay for Modulators of Lamin A Splicing; HeLa LMNA splicing GFP/RFP minigene ratio, 48 h; Potency, µM (series often up to 46.1 µM), inactives show at the top dose ratio change, negative = inhibition, usual class: inhibitors; AID 1487, 2009; actives 0.01% (n = 200,000); active means well fitted inhibition curve with a large enough effect in the signal ratio, with a control signal flat, not every such curve was filed as active; inconclusive means small, poorly fitted or top-dose-only effect, or effect the other way, or a change in a side signal; the % refers to the signal ratio; further: potency means the concentration at half of the fitted maximal effect; on the % scale 0 is the no-effect control and ±100 the full control effect
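S3 HeLa cells stably expressing lamin A-EGFP splicing minigene plus DsRed2, 600 cells/well, 48 h compound exposure at 37C. Laser-scanning cytometry; analysed as GFP (500-530 nm)/RFP (575-640 nm) total intensity ratio; 0.5% DMSO vehicle.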
Starred values were filed as active, the others as inactive; ? = inconclusive; · = not tested or not shown; & = joins results of further samples; [ ] = another dose, or the depositor's remark. Unless noted, the call rests on the fitted dose curve; in most records, active means well fitted curve in the direction sought with a large enough effect; inconclusive means small, poorly fitted or top-dose-only effect, or another doubt; inactive means no such curve, though single readings can be large; an effect the other way counts as inactive or inconclusive. A portion of the library, so the mix of outcomes need not match the whole.

SMILES	Luc counter	Epigenetic derep	HttQ103 aggreg	IMPase Li inh	CBFb-RUNX1 inh	LMNA splice mod
NS(=O)(=O)c1ccc(NC(=O)CSc2nnc(COc3ccccc3Cl)n2C2CC2)cc1	-3%	1.4%	-11%	25%[38.3 µM]	-2%	-5%
O=C(Nc1cccc(F)c1)N1CC=C(c2ccc(Cl)cc2)CC1	-3%	0.2%	?	46%[activator][38.3 µM]	6%	?
CSc1cccc(NC(=O)C2CCCN2S(=O)(=O)c2ccc(Br)s2)c1 (stereo not drawn)	-7%	-1.5%	?	11%[38.3 µM]	-2%	?
N#Cc1c(NC(=O)CN2CCCCC2)sc2c1CCC2	10%	0.0%	9%	1%[38.3 µM]	2%	6%
Cc1ccc2[nH]c(=O)c(N3CCOCC3)c(-c3ccccc3)c2c1	0%	-1.1%	-4%	4%[38.3 µM]	2%	0%
O=C(Cc1ccccc1)NC1CCN(S(=O)(=O)c2cccc(F)c2)CC1	0%	-0.1%	3%	3%[38.3 µM]	5%	-4%
COC(=O)c1ccccc1NC(=O)C1CC(c2ccc(F)cc2)=NO1 (stereo not drawn)	0%	-0.9%	?	10%[38.3 µM]	5%	?
Cc1noc(C)c1C(=O)Nc1nc(C23CC4CC(CC(C4)C2)C3)cs1	-2%	1.2%	?	37%[38.3 µM]	4%	?
CC(=O)OC1CC2C(C)(C)C(=O)C=C[C@]2(C)C2CC[C@@]3(C)C(c4ccoc4)OC(=O)C4O[C@@]43[C@]12C (stereo partly drawn)	-2%	8.0%	·	4%	1%	·
CCOC(=O)c1ccc(N=c2sc(C(=O)OC)cc(=O)n2Cc2ccco2)cc1	8%	-1.0%	-2%	15%	6%	?
CC(C)C[C@H](NC(=O)c1[nH]cnc1C(=O)Nc1ccccc1)C(=O)OC(C)(C)C	·	4.1%	-10%[9.22 µM]	·	21%	·
Cc1nc2ccc(NC(=O)N3CCSCC3)cc2s1	-5%	2.1%	-2%	12%[38.3 µM]	-1%	5%
CCOc1ccc(Nc2nc3cc(S(=O)(=O)N(CC)CC)ccc3o2)cc1	2%	0.0%	6%	25%[38.3 µM]	1%	?
CCC(=O)N1CCN(c2ccccc2NC(=O)COc2cc(C)ccc2C(C)C)CC1	0%	-2.1%	-5%	43%[activator][38.3 µM]	2%	?
CC1CCCC(C)N1C(=O)CSc1nnc(COc2ccccc2)n1-c1ccccc1 (stereo not drawn)	1%	1.8%	-24%[9.22 µM]	28%[38.3 µM]	-4%	1%
O=C(N[C@@H](Cc1ccccc1)C(=O)NC1CCCCCC1)c1ccco1	-1%	-1.5%	5%[9.22 µM]	-9%[38.3 µM]	3%	4%
CC1=CC(C)(C)Nc2ccc(OC(=O)c3ccco3)cc21	-5%	?	?	-7%[38.3 µM]	-5%	?
Cc1ccc2nc(-c3ccccc3)c(CN3CCN(c4ccccc4F)CC3)n2c1	5%	-2.2%	?	37%[activator]	-12%	·
Cc1ccc(-c2cc(C(F)(F)F)n3ncc(C(=O)N4CCCCC4c4cccnc4)c3n2)cc1 (stereo not drawn)	-2%	0.1%	-13%	9%	-16%	?
CN(C(=O)CCc1ccccc1)c1nnc(-c2ccncc2)s1	0%	0.0%	·	-2%	3%	3%[46 µM]
Cc1nn2c(N3CCN(C(=O)c4ccco4)CC3)cc(C(C)(C)C)nc2c1-c1ccccc1	0%	-2.8%	-11%	2%[38.3 µM]	0%	5%
Cc1[nH]n(-c2ccc(Br)cc2)c(=O)c1C=Nc1ccc(S(=O)(=O)Nc2nccs2)cc1	-28%	1.1%	-1%	31%[activator]	-18%	-9%
CC(C)Nc1ncnc2c1cnn2-c1ccc(Cl)cc1	-3%	0.0%	22µM*	32%[38.3 µM]	11%	-6%
CCOC(=O)C1=NN(c2ccc(OC)cc2)C2C(=O)N(c3ccccc3OC)C(=O)C12 (stereo not drawn)	·	1.4%	-12%[9.22 µM]	·	16%	·
Cc1cc(=O)n(CC=C(Cl)Cl)c2ccccc12	-4%	?	5%[9.22 µM]	11%[38.3 µM]	2%	21%
O=C(Nc1ccccc1N1CCN(C(=O)c2ccccc2)CC1)c1ccc2c(c1)OCO2	-5%	-1.0%	15%	6%[38.3 µM]	-2%	?
CCC(=O)Nc1ccc(-c2nn3c(C)nnc3s2)cc1C	-1%	1.0%	-16%	24%[38.3 µM]	0%	0%
O=C(Nc1cccc(-c2nnc(-c3ccccc3)o2)c1)C1CCCCC1	3%	1.0%	-3%	-1%	-11%	-9%
C/C=C/C(=O)OCC(=O)Nc1cccc(S(=O)(=O)NC2=NCCCCC2)c1	1%	-0.6%	-16%	5%	3%	-9%[46 µM]
COc1ccc(NC(=S)N(CCCN2CCCC2)Cc2cccn2Cc2ccc(Cl)cc2)cc1Cl	-2%	-0.2%	?	14%	-6%	?
N#Cc1cc2c(nc1SCC(O)CS(=O)(=O)Cc1ccc(Cl)cc1)CCCC2 (stereo not drawn)	0%	13%	?	4%[38.3 µM]	-2%	?
CCN(CC)S(=O)(=O)c1ccc2[nH]cc(C(=O)NCCC3=CCCCC3)c(=O)c2c1	1%	8.0%	10µM*	15%[38.3 µM]	3%	?
O=C(NC1CCCCC1)C(c1ccc2ncccc2c1)N(Cc1cccs1)C(=O)c1cccs1 (stereo not drawn)	-2%	-0.8%	?	27%[38.3 µM]	-3%	?
CCOC(=O)C1CCN(Cc2cn[nH]c2-c2ccc(C)cc2)CC1	2%	-0.3%	11%	3%[38.3 µM]	7%	10%
Cc1ccc(NC(=S)Nc2cccc(-c3n[nH]c(=S)o3)c2)cc1	·	-3.8%	7%[9.22 µM]	·	-1%	·
C/C(=N\NC(=O)c1ccc(NS(=O)(=O)c2cccs2)cc1)c1ccc(C(C)(C)C)cc1	-1%	2.3%	-6%	4%	3%	25%
CO/N=C(\Cn1ncc(NC2CCCCC2)c(Br)c1=O)c1ccc(Cl)cc1	13%	1.9%	?	4%[38.3 µM]	10%	-29%
Cc1ccc(S(=O)(=O)Nc2nc3ccccc3nc2Nc2cccc(S(=O)(=O)N3CCCC3)c2)cc1	1%	1.3%	?	17%	5%	?
Cc1ccc(C(c2nnnn2CC2CCCO2)N2CCN(c3cccc(C)c3C)CC2)cc1 (stereo not drawn)	2%	2.0%	?	40%[activator][38.3 µM]	5%	-13%
CCC(C)n1c(SCc2ccc([N+](=O)[O-])cc2)nc2ccsc2c1=O (stereo not drawn)	-6%	-1.0%	-5%	17%	-24%	?
CCOC(=O)c1[nH]c2ccc(Cl)cc2c1-c1ccccc1	8%	6.7%	29%	-11%[38.3 µM]	-16%	-2%[0.0737 µM]
COC(=O)C1=NN(c2ccccc2OC)C2C(=O)N(c3ccccc3OC)C(=O)C12 (stereo not drawn)	1%	-1.1%	-16%	19%	4%	-10%
CCOC(=O)Cn1nnnc1CN(Cc1ccc(OC)cc1)Cc1cc2cc(C)ccc2[nH]c1=O	0%	0.0%	2%	6%	6%	-5%
C=CCOC(=O)C(C#N)c1nc2ccccc2nc1N1CCN(Cc2ccc3c(c2)OCO3)CC1 (stereo not drawn)	-2%	1.9%	-10%	17%[38.3 µM]	-18%	-22%
Cc1ccc(C(=O)OCC(=O)Nc2cccc(S(=O)(=O)NC3=NCCCCC3)c2)c(C)c1	2%	-3.9%	-14%	4%	0%	24%[9.22 µM]
Cc1ccc2oc(=O)cc(CN3CCOCC3)c2c1	-1%	-0.3%	15%	3%[38.3 µM]	0%	5%
COCCOc1cc(N)c(Cl)cc1Cl	3%	2.1%	-4%	3%	-5%	8%[46 µM]
O=C(O)c1cc(-c2ccc(/C=N/Nc3ccc(Cl)cc3)o2)ccc1Cl	2%	-0.5%	-11%	-9%[38.3 µM]	-5%	17%
CC(C)CCn1c(=O)c2ccccc2n2c(CN(C)Cc3ccccc3)nnc12	-2%	0.0%	?	13%	26%	-9%
Cc1ccc(NCc2nnc(SCC(=O)NCc3ccco3)n2CC2CCCO2)c(C)c1 (stereo not drawn)	2%	-1.0%	-19%	31%[38.3 µM]	-5%	-5%

Remaining list, next part:
SMILES	Luc counter	Epigenetic derep	HttQ103 aggreg	IMPase Li inh	CBFb-RUNX1 inh	LMNA splice mod
COC(=O)Cn1c(=O)n(CCc2ccccc2)c(=O)c2c3c(sc21)CCCC3	0%	-3.1%	-2%	15%[38.3 µM]	6%	-10%
Cc1ccc(F)c([C@H]2C3C=CCC(c4ccccc4)C3C(=O)N2Cc2ccccc2)c1 (stereo partly drawn)	·	1.4%	?	·	17%	·
O=C(NNc1cc(C(F)(F)F)nc2ccccc12)Nc1cccc(Cl)c1	·	-1.0%	12%[9.22 µM]	·	6%	·
Cc1ccc(C(c2nnnn2CCc2ccccc2)N2CCC(C)CC2)cc1 (stereo not drawn)	1%	-1.2%	7%	2%	13%	?
COc1ccc(C2=NN(C(=O)c3cccs3)C(c3ccc(OC)cc3)C2)cc1 (stereo not drawn)	3%	-1.0%	-25%	7%	0%	-17%
Cc1cc(C)c(S(=O)(=O)c2c(C)cccc2C)c(OCC(C)C)n1	1%	-2.7%	?	9%	26%	?
COc1ccc(Nc2nc(CC(C)=O)ns2)cc1OC	1%	0.8%	6%	0%[38.3 µM]	-4%	4%
CC(C)C[C@H](NC(=O)c1nc[nH]c1C(=O)N1CCC(C)CC1)C(=O)OCc1ccccc1	·	-0.4%	-29%[9.22 µM]	·	-1%	·
CCCCCn1c(N)c(-c2nc3ccccc3s2)c2c([N+](=O)[O-])nn(C)c(=O)c21	·	-1.0%	4%	·	-8%	-6%
O=C(Cc1cccs1)NC(c1ccccc1)c1ccccc1	-3%	2.3%	-6%[9.22 µM]	8%	5%	2%[46 µM]
O=C(Nc1ccc(Cl)cc1)N1CCN(c2ccc3nnc(-c4ccc(F)cc4)n3n2)CC1	-1%	-6.0%&0.0%	22µM*	24%	15%	?
Cc1ccc(S(=O)(=O)c2cc3c(=O)n4ccccc4nc3n(Cc3ccco3)c2=N)cc1C	1%	?	-8%	12%[38.3 µM]	1%	1%
CSc1ccc(-c2c(C#N)c(N)nc3c2c(C)nn3-c2ccccc2)cc1	0%	?	6%	-3%[38.3 µM]	28%	12%

Compound profiles, as listed above. Order of values: Luc counter, Epigenetic derep, HttQ103 aggreg, IMPase Li inh, CBFb-RUNX1 inh, LMNA splice mod
Record of O=C(Nc1ccc(Cl)cc1)N1CCN(c2ccc3nnc(-c4ccc(F)cc4)n3n2)CC1 → -1%, -6.0%&0.0%, 22µM*, 24%, 15%, ?
Record of CC(C)C[C@H](NC(=O)c1nc[nH]c1C(=O)N1CCC(C)CC1)C(=O)OCc1ccccc1 → ·, -0.4%, -29%[9.22 µM], ·, -1%, ·

Source: PubChem BioAssay
